# BJeLR viability – BJeLR cell viability loss; BJeLR (HRASV12) viability, CellTiter-Glo ATP luminescence, 48 h; reference of the scale not given here; inhibition, % (test concentration not listed); 0.17% of 300,000 active; AID 1554;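 active = replicate mean above 50%; inconclusive = above 50% but judged a plate artefact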;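 note: 50 nL library stock added to about 25 µL; numbers are from one replicate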
# ugtP null kill – compounds lethal to S. aureus RN4220 ugtP deletion mutant; OD600 growth, 16 h; some inactives read as strong as hits; growth inhibition, % (test concentration not listed); 0.54% of 330,000 active;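 active = z-score under -3 and OD600 up to 0.15 on both plates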;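 note: plate controls were untreated wells for no effect and antibiotic for full effect; wells of about 80 µL received 100 nL stock; the first replicate is given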
# Mtb hypoxia inh – inhibitors of hypoxia-regulated fluorescent reporter in Mycobacterium tuberculosis | M. tuberculosis hypoxia-regulated fluorescent reporter, fluorescence | fluorescence inhibition, % (concentration not given with the values) | 0.1% of 300,000 active | AID 1159583;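 active = 35 to 45% if threefold the growth effect, above 45% if 1.5-fold the growth effect; inactive = the rest, general growth blockers included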;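 note: wells of about 50 µL received 100 nL stock; 0% = vehicle wells and 100% = reference inhibitor wells; whole bacteria with a GFP reporter of the hypoxia response; strong numbers were not always called active; many hits fall short of the cut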
# Sa RN4220 lethal – S. aureus RN4220 growth inhibition; OD600, 16 h; inhibition, % (concentration not given with the values); 0.33% of 330,000 active; AID 1259311;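 active = z-score of -3 or lower and OD600 up to 0.18 on both plates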;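 note: plate controls were untreated cells for no effect and reference antibiotic for full effect; stock transfer was 100 nL into about 80 µL; one replicate is shown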
# Autofluor counter – compound fluorescence in toxin protease inhibitor counterscreen | compound autofluorescence counterscreen, microsphere flow cytometry; hits give high values | fluorescence intensity (no concentration beside the values) | 3.1% of 360,000 active;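 active = at least 3 SD above the mean of all compounds, about 16000 in these data; inconclusive = too few beads counted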;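 note: 100 nL of 1 mM stock went into each well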
# PrP 5UTR inh – inhibition of PrP 5' UTR reporter expression | cell-based PrP 5' UTR mRNA reporter, plate reader | inhibition, % (concentration not given with the values) | 0.35% of 340,000 active | AID 488862;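 active = every replicate at 50% or more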;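 note: 0 = median of the neutral control wells; tested in H4 reporter cells; numbers are from one replicate; inactives centre near -14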
# Mtb hypoxia inh growth – further read-out of Mtb hypoxia inh, marked with its call; growth inhibition, %; measured here: M. tuberculosis growth (absorbance);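 0% = vehicle and 100% = reference antibiotic; read after six days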
# * = called active by the depositor; u = inconclusive; x = not tested or not shown.
SMILES	BJeLR viability	ugtP null kill	Mtb hypoxia inh	Mtb hypoxia inh growth	Sa RN4220 lethal	Autofluor counter	PrP 5UTR inh
Cc1ccc(CS(=O)(=O)c2cn(CC(=O)N3CCOCC3)c3ccccc23)cc1	0	6	-8	-10	3.9	5652	-8
Cc1ccc(C(=O)COC(=O)CCNS(=O)(=O)c2ccccc2F)cc1	x	5	19	50	-0.3	3892	-8
O=C(CSc1nnc2n(C3CCCC3)c(=O)c3ccccc3n12)N1CCCCCC1	-2	-1	5	10	1.2	9616	-18
COc1ccc(S(=O)(=O)NC2CC(=O)N(c3ccccc3)C2)cc1C (stereo not given)	-5	1	-3	-2	4.5	x	-7
Nc1nc(NCCOCCO)nc(NC2CCCCC2)c1[N+](=O)[O-]	4	0	3	6	0.0	3066	4
Cc1oc(C(C)(C)C)cc1C(=O)Nc1ccc2c(c1)OCO2	-7	13	19	-2	1.6	x	x
C(=N\Nc1nn2cnnc2c2ccccc12)/c1ccco1	-7	x	x	x	x	4381	-14
O=C(/C=C/c1ccccc1)NC(N1CCOCC1)C(Cl)(Cl)Cl (stereo not given)	1	6	12	0	5.0	2436	-12
O=C1OC(c2ccc(Cl)cc2)/C(=C(/O)c2ccccc2)C1=O (stereo not given)	-2	1	18	11	4.7	8738	-27
CCN(CC)S(=O)(=O)c1ccc(N2CCOCC2)c(NC(=O)c2cc(=O)[nH]c3ccccc23)c1	-1	-2	0	-4	1.4	4246	-19
Cc1ccccc1CS(=O)(=O)Cc1ccc(C(=O)NCCCN2CCOCC2)o1	8	4	9	5	7.6	2541	-22
Cc1ccc(C)c(NC(=O)c2cc(S(=O)(=O)N3CCCCC3)ccc2N2CCOCC2)c1	x	4	2	3	2.1	3573	-24
O=C(CNc1ccccc1)N/N=C/c1ccc([N+](=O)[O-])o1	-12	x	x	x	x	24670*	-21
COc1ccc(CCNC(=O)CS(=O)Cc2nc(-c3ccccc3F)oc2C)cc1OC (stereo not given)	3	-2	10	11	2.0	5478	-29
CCN1CCN(c2nn3c(=O)c4ccccc4nc3c3ccccc23)CC1	4	3	x	x	3.1	2826	-22
O=C(NN=Cc1ccc([N+](=O)[O-])cc1)c1[nH]ncc1Br	x	1	-14	0	-1.9	x	x
Cc1nc2c(C)cccn2c1C(=O)N/N=C/c1ccccc1[N+](=O)[O-]	-6	x	x	x	x	4327	-26
CC(=O)NS(=O)(=O)c1ccc(NC(=O)[C@@H]2CCCN2S(=O)(=O)c2ccc(Cl)cc2)cc1	x	4	1	-4	3.6	u	-17
CCN(CC)CCNC(=O)c1ccc(NC(=O)c2ccc(C(=O)c3ccccc3)cc2)cc1	1	4	9	4	-0.2	x	-7
O=C(O)c1cccc(Cn2c(Cl)c(C=NNC(=O)c3cccc(O)c3)sc2=O)c1	x	1	12	5	0.6	x	x
COc1cc(C)c(CN2CCC(n3nccc3NC(=O)C3CC3)CC2)cc1C	-6	4	13	1	2.0	5513	-16
Cc1nnc(SC(C)C(=O)Nc2ncc(Cl)cc2Cl)n1Cc1ccccc1 (stereo not given)	5	-7	-2	0	6.8	3095	-8
Cc1cc(C)c(S(=O)(=O)NCc2csc(C)n2)c(C)c1	6	1	2	5	4.9	4353	-28
CC(C)CCNc1nc(N)c([N+](=O)[O-])c(NC2CCCCC2)n1	4	8	9	3	3.6	3842	-14
O=C(NCc1ccccc1F)C(=O)NCC1CCCN1S(=O)(=O)c1cccs1 (stereo not given)	5	9	-1	-1	4.0	u	-32
Cc1ccc(C(C)C)c(OCCNC(=O)c2cncc(Br)c2)c1	2	3	11	7	0.5	2370	5
C=CCn1c(=O)c2c(nc3n2CCN3c2cccc(Cl)c2C)n(C)c1=O	1	18	4	1	3.6	16780*	-30
CN(C)Cc1c(C(=O)NN=Cc2cccnc2)nnn1-c1nonc1N	x	5	3	4	2.7	x	x
O=C(CCNC(=O)c1ccc([N+](=O)[O-])cc1)NNC(=O)c1ccccc1F	x	7	10	6	4.2	2975	-14
CCC(=O)N(C)CCc1cc2c(c(OC)c1/C=N/Nc1ccc(C(=O)O)cc1)OCO2	-9	x	x	x	x	4772	-19
O=c1[nH]c(-c2ccccn2)cc2ccccc12	6	2	6	0	6.0	2134	-73
CCC(C)NC(=O)Cn1cnc([N+](=O)[O-])c1 (stereo not given)	-7	5	0	7	3.3	1985	-21
CCN(Cc1cccs1)C(=O)c1cccc(S(=O)(=O)N2CCN(C)CC2)c1	x	-1	2	4	2.2	3669	0
O=C(NCc1ccccc1)c1cc2ccc(O)cc2oc1=O	-2	-2	2	-3	4.1	4170	-29
CCOc1ccc(NC(=O)C2=C(C)NC(=S)NC2c2ccc(O)c(OC)c2)cc1 (stereo not given)	-12	x	x	x	x	10140	-5
CC(=O)/C(C#N)=C1\NC(=O)C(Cc2ccccc2)S1 (stereo not given)	24	10	1	0	7.7	3487	1
CC(=O)Nc1ccc(S(=O)(=O)N[C@@H](C)C(=O)OCc2cc([N+](=O)[O-])cc3c2OCOC3)cc1	12	4	14	-1	0.9	5039	-14
Cc1ccccc1CN1CCc2cc([N+](=O)[O-])ccc21	7	1	-8	-6	3.1	3824	-4
CN1CCN(c2ncnc3c2cnn3C)CC1	8	3	13	4	2.8	x	-7
CS(=O)(=O)c1ccc(-c2nnn(CC(=O)N3CCCCC3)n2)cc1	-21	13	0	4	3.2	3252	-11

# 3 neighbouring compounds out of the list so far:
SMILES	BJeLR viability	ugtP null kill	Mtb hypoxia inh	Mtb hypoxia inh growth	Sa RN4220 lethal	Autofluor counter	PrP 5UTR inh
COc1cc(C)c(CN2CCC(n3nccc3NC(=O)C3CC3)CC2)cc1C	-6	4	13	1	2.0	5513	-16
Cc1nnc(SC(C)C(=O)Nc2ncc(Cl)cc2Cl)n1Cc1ccccc1 (stereo not given)	5	-7	-2	0	6.8	3095	-8
Cc1cc(C)c(S(=O)(=O)NCc2csc(C)n2)c(C)c1	6	1	2	5	4.9	4353	-28

# Continued:
SMILES	BJeLR viability	ugtP null kill	Mtb hypoxia inh	Mtb hypoxia inh growth	Sa RN4220 lethal	Autofluor counter	PrP 5UTR inh
COC(=O)COc1ccc(C(=O)Cn2c(NCCCO)nc3ccccc32)cc1	-5	5	-6	3	2.5	4692	-6
Cc1ccccc1C(=O)N1CCC(C(N)=O)CC1	4	-5	6	4	5.9	11900	-28
O=C(/C=C/c1ccc(Cl)cc1)Nn1c(-c2cccs2)nc2ccccc2c1=O	-10	-9	-10	0	4.6	2490	-12
Cc1coc(=N)n1CC(=O)c1ccc(Cl)cc1	x	2	2	-3	5.6	3385	-18
CCN(CC)CCn1c(N)nc2ccccc21	0	2	16	2	5.3	3963	x
COc1ccc(NC(=O)CC2SC(N3CCCCC3)=NC2=O)cc1OC (stereo not given)	x	-1	2	9	2.1	8470	2
CCOC(=O)C=c1sc(=Cc2ccc3cc(OC)ccc3c2)c(=O)n1CC(=O)NCc1ccc2c(c1)OCO2	x	1	11	11	1.8	x	x
COc1ccccc1Cn1nnc2c(=O)[nH]c(C3CCN(C(=O)c4ccccc4Cl)CC3)nc21	13	1	14	8	5.1	2903	0
COc1ccc(CC(=O)O/N=C(\N)c2ccccn2)cc1OC	8	13	3	0	5.8	4886	-25
COC(=O)c1ccccc1NC(=O)NCc1c(C)nn(C)c1C	x	3	-5	-12	3.3	4524	-12
CC(CC(=O)NC12CC3CC(CC(C3)C1)C2)=NNC(=O)c1ccc(C)cc1	x	3	3	-2	5.2	x	x
CC(=O)c1ccc(NC(=S)N(CCCN(C)C)Cc2ccccc2)cc1	11	9	5	-1	1.8	4560	-28
CCOC(=O)c1cc(NC(=O)Nc2ccc(Br)cc2)c(C)nc1C	x	-8	13	-7	-8.3	2549	-18
Cc1ccc(NC(=O)C2(c3ccccc3)CC2(Cl)Cl)cc1C (stereo not given)	-5	x	x	x	x	3873	-34
COc1ccc(C(=O)CCc2ccccc2)c(O)c1	-2	29	16	2	6.6	5374	-35
Cc1nc(SCC(=O)N2CCOCC2)c2ccsc2n1	7	-3	x	x	-0.2	5261	-21
CC(C)(C)c1cc(CN(CCO)CCO)c(O)c(C(C)(C)C)c1	5	4	-3	3	3.0	3624	-8
CCC/C(=N\O)c1c[nH]c2ccccc12	4	x	x	x	x	4407	-14
O=c1c2cnn(-c3ccccc3)c2nc(-c2cccs2)n1-c1ccc(Cl)cc1	10	23	0	12	11	3474	-1
COc1ccc(CN2CCNC(=O)C2CC(=O)N(C)Cc2nccn2C)cc1OC (stereo not given)	2	3	-7	-5	11	3935	-33
COc1cccc(C2=Nn3c(nnc3-c3ccccc3O)SC2)c1	2	-16	7	0	4.8	4391	-20
COc1ccc(-c2cc(=Nc3ccc(C(=O)O)cc3)c3cc(C)ccc3o2)cc1	5	20	3	2	1.2	4378	-74
NC(=NC1CCCCC1)c1ccc(Cl)cc1	-2	3	3	0	3.1	4723	-17
CC[C@]12c3[nH]c4ccc(OC)cc4c3CCN1C(=O)C(CC(=O)NCCc1ccccn1)C[C@@H]2C(=O)N1CCN(C(=O)c2ccco2)CC1 (stereo not given in full)	x	5	-5	2	2.4	3756	-9
C=CC1=C2C=C(C3CC3)N(CCCN(CC)CC)C=C2C(=O)C(C)(OC(=O)c2ccco2)C1=O (stereo not given)	3	-3	13	5	4.7	2748	-14
COC(=O)Cn1c(=NC(=O)c2ccc(Cl)s2)sc2cc(C)ccc21	-5	3	-5	10	0.9	2059	-103
Fc1cccc(NCCc2c[nH]c3ccccc23)n1	-12	-7	10	0	1.2	3619	-4
CC(=O)Nc1cc(S(=O)(=O)Nc2ccccc2C)c(C)cc1C	13	6	x	x	9.0	2150	3
CC1CCc2c(C(=O)Nc3ccccn3)csc2C1 (stereo not given)	1	-21	6	2	2.6	6574	-103
CC(=O)Nc1ccc(SCC(=O)O)cc1	1	4	-6	-11	2.6	3569	-20
COCCCn1c(SCC(=O)Nc2nnc(C)s2)nnc1-c1ccoc1C	-9	12	x	x	3.6	3762	-15
O=S(=O)(c1ccc2ccccc2c1)n1cnc2ccccc21	1	22	0	2	35	2843	-21
NC(=O)NN=Cc1sc(=O)n(-c2ccccc2)c1Cl	x	12	-5	5	2.2	x	x
CC/C(C)=C1\SC(N2CCN(C(C)=O)CC2)=NC1=O	-2	x	x	x	x	2336	-12
Cc1ccc(C(=O)O)cc1NC(=O)CCc1ccccc1	-1	3	0	0	2.2	4501	-25
COc1ccccc1N1C(=O)CC(N(O)c2ccccc2)C1=O (stereo not given)	11	6	9	-5	2.7	5532	-12
COc1ccc(-c2nc3ccccc3c(=O)n2N)cc1	-4	11	3	-2	6.0	u	-19
O=C(CSc1nc2ccccc2o1)N/N=C/c1ccc(C(=O)O)cc1	-12	x	x	x	x	4918	-21
C[C@H](CO)N1C[C@H](C)[C@@H](CN(C)Cc2ccc(C(=O)O)cc2)Oc2c(cccc2N(C)C)C1=O	x	0	2	7	-13	3563	-12
COc1ccccc1NC(=O)c1cc(=O)[nH]c2ccccc12	-6	13	1	8	2.9	3319	-6
COc1cccc(OC)c1OCCCN1CCOCC1	4	5	2	5	2.6	2385	6
Nc1nc(-c2ccccc2)c(CCCNc2ccccc2)c(=O)[nH]1	x	-6	-2	5	1.7	3725	-4
CCN(CC)c1nc(N)c(C#N)c(CC#N)c1C#N	-5	-10	1	3	-4.1	4107	-6
C=CCSC(=Nn1cnc2ccccc2c1=O)N(CC)CC	x	-4	16	8	-13	x	x
CCN(Cc1cnn(C)c1)Cc1nc(Cc2ccccc2Cl)no1	-12	6	10	-3	8.8	4446	-18
COc1ccc(C(=O)Oc2cc(/C=N/NS(=O)(=O)c3ccc(C)cc3)ccc2OC)cc1	2	x	x	x	x	2625	-19
CCOC(=O)c1cc(-c2ccccc2)n(CC(=O)Nc2ccc(OC)cc2)c1C	-15	3	4	3	2.3	2130	-11
CCCC(=O)Nc1nnc(-c2ccc(Cl)s2)o1	-8	4	2	-3	-0.1	5627	-16
C=CCOc1ccc2nnc(C)n2n1	2	-6	17	4	8.5	2000	-5

# Hits appear at their usual frequency; any-hit rate near 4%.
